# CapD inh: blocks the Bacillus anthracis CapD enzyme. purified CapD enzyme, fluorescence intensity read-out; stronger effect = lower value; some hits fall short of the stated cut. z-score (test concentration not listed). hit rate 0.23% among 140,000. AID 492967;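 active means z-score under -4 in either of two replicates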;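 further: stock transfer was 100 nL into about 40 µL; score is relative to mean and spread of the plate; one replicate is shown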
# AID504770: growth inhibitors of E. coli YBA685 in a screen for V. cholerae RctB (chromosome II replication) inhibitors; E. coli YBA685 rctB-dependent plasmid, OD600 growth, 3 h; stronger effect = lower value; z-score (concentration not given with the values); hit rate 0.27% among 130,000; AID 504770;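 active means z-score under -2 on both plates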;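 further: wells of about 30 µL received 100 nL stock; score is relative to mean and SD of the test wells; the first replicate is given; strong numbers were not always called active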
# Active calls of the source: *; · = no result given; & = joins results of further samples.
SMILES,CapD inh,AID504770
CCC(C)[C@@H](C(=O)NCc1ccc(F)cc1)N1Cc2ccccc2C1=O (stereo not given in full),-0.77,0.1
COc1ccc(-c2csc(S(C)=O)c2C#N)cc1 (stereo not given),0.34,-0.65
CCN(/C=C1/CCCCC1=O)C1CC2CCC1C2 (stereo not given),·,0.05
COC(=O)Cc1c(C)c2ccc3c(c2oc1=O)CN(Cc1cccc(OC)c1)CO3,78,0.25
O=C(O)C(C(=O)C1CC1c1ccccc1)=C1SCCS1 (stereo not given),·,-0.1
CCOC(=O)C(O)(c1ccc(N(CC)C(=O)OC)cc1)C(F)(F)F (stereo not given),-0.44,-0.5
Cc1ccc(-n2ncc3c(Nc4ccc(S(N)(=O)=O)cc4)ncnc32)cc1,2.1,·
CN(C)Cc1ccccc1CNC(=O)c1ncc(Cl)c(Cl)c1Cl,·,0.25
CSc1nnc(C)c(=O)[nH]1,0.51&-0.68,-0.9&-2.2
COc1ccc(CC(=O)NNC(=O)OCCCc2cccnc2)c(OC)c1,-0.49,·
COc1ccc(CC(=O)NCc2n[nH]c(=S)n2-c2cccc(C)c2)cc1,·,0.65
Cc1ccc(NC(=O)COC(=O)CC2SC(N3CCCC3)=NC2=O)cc1 (stereo not given),·,2.6
COc1ccc(/C(C)=N/N2C(=O)c3ccccc3NC2c2ccccc2O)cc1 (stereo not given),-0.08,-1.4
O=C(NC1CCCC1)C(Sc1ccccc1)c1ccccc1 (stereo not given),0.28,0.4
O=C(Cn1c(=O)n(CCCC(=O)NC2CCCC2)c(=O)c2ccccc21)NCCC1=CCCCC1,-0.92,-0.2
CCCCC(C(=O)Nc1ccc(F)cc1)N1C(=O)c2ccccc2C1=O (stereo not given),-0.13,-0.75
CCc1ccc(NS(=O)(=O)c2c(C)[nH]c(=O)[nH]c2=O)cc1,0.63,0.45
Cc1c(CC(Cl)(Cl)Cl)c2c(n1-c1ccc(F)cc1)CCCC2=O,-0.2,·
CSc1cc(-c2ccco2)[nH]c(=O)c1C#N,52,-0.75
O=C1C=C(NNC(=O)COc2cccc(F)c2)CCC1,·,-0.55
COc1ccc(NC(=O)Cn2nc(Cc3ccncc3)c3ccccc3c2=O)cc1OC,-1.2,0.3
O=C(Nc1ccc(F)cc1)C1CC(=O)N(Cc2ccccc2)C(=Nc2ccccc2)S1 (stereo not given),1,·
CCc1nnc(NC(=O)c2sc3nc4c(cc3c2N)CCCC4)s1,1.6,-0.2
N#CCn1c(C(F)(F)F)nc2c(cnn2-c2ccccc2)c1=O,·,0.5
CC(C)C(=O)NC(=S)Nc1ccc(-c2nc3ncccc3o2)cc1,26,-0.05
CCOC(=O)C1=C(C)NC(=O)NC1c1ccc(OCC(=O)N2CCCCC2)c(OC)c1 (stereo not given),-0.33,·
O=C(Nc1nc2c(s1)CN(Cc1ccccc1)CC2)C1CCCCC1,-0.45,-2.2
COC(=O)c1sccc1OC(=O)c1cccnc1Oc1ccccc1,-0.6,·
CN1C(=O)C(O)(CC(=O)c2ccccc2)c2ccccc21 (stereo not given),0.075,-0.65
CCn1cc(C(=O)NCc2ccccc2)c(=O)c2cc(S(=O)(=O)N3CCCC3)ccc21,0.25,-0.35
COc1cc2c(cc1OC)C(c1ccccc1NC(=O)c1cccc(Cl)c1)=NCC2,-0.58,1.7
COC(=O)C(O)(CC(=O)Nc1cccc(SC)c1)C(F)(F)F (stereo not given),0.11,-0.2
O=C(O)CNCc1c(Cl)cccc1Cl,0.46,-0.1
CN1CCOc2cc(/C=C3\C(=O)Nc4ccccc43)ccc21,-3.4,0.4
CC(CO)NCC12CC3CC(CC(C3)C1)C2 (stereo not given),0.7,-1.1
Cn1nnnc1NC(=O)c1ccccc1,·,-1.1
Fc1ccccc1CNC1CN2CCC1CC2 (stereo not given),-0.085,0.1
Cc1ccc(/C(C#N)=C\c2cccs2)cc1,·,2.6
COC(=O)c1ccc(NC(=O)Cn2c(-c3cncs3)nc3ccccc32)cc1,0.08,-0.05
C=CCN=C1NC(=O)C(CC(=O)Nc2ccc(Cl)cc2)S1 (stereo not given),-0.05,·
C=CCc1ccc(OCc2ccccc2)c(OC)c1,0.06,-0.6
CN=c1scc(C)n1/N=C/c1c[nH]c2ccc(Br)cc12,·,1.6
Cc1ccc2cc3cc(C(=O)NCCCN4CCCC4)oc3nc2c1,-1.1,2.4
CSc1ccc(S(=O)(=O)N2CCC(C(=O)NCCN3CCOCC3)CC2)cc1,·,-0.35
Nc1oc2c(CN3CCCCCC3)c(O)ccc2c(=O)c1-c1nc2ccccc2s1,22,-0.6
COC(=O)c1c(SCC(=O)NC2CCCCC2)[nH]c2ccccc2c1=O,0.82,-0.75
CC(C(=O)NCCOc1ccccc1)c1ccc(Cl)cc1 (stereo not given),-0.065,·
Cc1nn(-c2ccccc2)c(Cl)c1C(=O)N1CCN(C)CC1,0.17,-0.25
CC(=O)Nc1c(Cl)cc(Cl)c2cccnc12,-0.33,-1
CC1CCCC(C)N1C(=S)SCC(=O)O (stereo not given),·,-1.3
CC(=NCc1ccc(C#N)cc1)c1c(C)cc(C)cc1O,0.82,-0.45
CN(C)CCN(C(=O)CN1C(=O)c2ccccc2C1=O)c1nc2c(F)cc(F)cc2s1,-0.33,-1.5
Cc1cccn2c(/C=N/OCc3cccc(F)c3)c(-c3ccc(Cl)cc3)nc12,6.5,·
CC(C)OC(=O)CN1CCN(S(=O)(=O)c2ccc(C(C)C)cc2)CC1,0.85,0
CCOC(=O)c1sc2nc(N)c(C#N)c(-c3ccc(OCC)cc3)c2c1N,0.39,·
N#Cc1nn(-c2ccccc2)c(=O)[nH]c1=O,-0.48,0.05
O=C(NCc1ccccc1)N(Cc1nc2ccccc2c(=O)[nH]1)C1CCCC1,·,-0.5
O=C(CSc1c[nH]c2ccccc12)Nc1ccccc1,-0.51,0.55
CCc1ccccc1NC(=O)CN1CCN(C(=O)C2CCCN2S(=O)(=O)c2ccc(C)cc2)CC1 (stereo not given),·,0.5
CCOC(=O)c1cccnc1SCC(=O)NC(C)CC (stereo not given),1.3,-1

# Record cards, as listed above. Values in the order: CapD inh, AID504770
# Profile of N#Cc1nn(-c2ccccc2)c(=O)[nH]c1=O : -0.48, 0.05
# Profile of CCOC(=O)c1cccnc1SCC(=O)NC(C)CC (stereo not given) : 1.3, -1
# Profile of CC(C)OC(=O)CN1CCN(S(=O)(=O)c2ccc(C(C)C)cc2)CC1 : 0.85, 0

# Other results.
SMILES,CapD inh,AID504770
CCN(C(=O)c1sc2ccccc2c1Cl)C(Cc1ccccc1)c1ccc(OC)cc1 (stereo not given),-0.31,0.9
COC(=O)/C=C1\SC(Cc2ccc(Cl)cc2)=NC1=O,-0.4,·
CC(C)(C)C(=O)CSc1nc2cc(Cl)c(Cl)cc2[nH]1,-1.3,-0.45
CCNC(=S)NCC1CC1,0.8,0
CCn1nc(C)c(C(C#N)N2N=C(C)CC2c2ccccc2)c1C (stereo not given),0.045,-1.4
O=C1CCNc2ccc(C(F)(F)F)cc2N1,11,-0.5
Cc1ccc(C2=C/C(=C3/c4ccccc4-c4ncccc43)C(=O)O2)cc1C,-0.13,·
CCCNC(=O)CN,·,1.8
CCOC(=O)C1=C(CSc2n[nH]c(N)n2)NC(=O)NC1C (stereo not given),·,-0.2
O/N=C/c1c(F)c(F)c(F)c(F)c1F,·,0.15
c1cc(-c2nc3ccccc3s2)nc(-c2nc3ccccc3s2)c1,-0.045,-0.25
CCOC(=O)C1CCN(c2ncnc3c2cnn3-c2cccc(C)c2)CC1,0.07,0.75
CCNC(=O)Cn1c(=O)c(=O)n(Cc2ccccc2)c2ccc(Cl)cc21,1.2,1.6
CNC(=O)C1Cc2cc(S(=O)(=O)N3CCCC3)ccc2N1C(C)=O (stereo not given),0.18,0.5
CC(C)CCN(C)C1CCN(S(=O)(=O)c2cccc(Cl)c2)CC1,0.12,1.1
Cc1cc(C)nc(N2CCN(C(=O)CCC(=O)NC3CCCCC3)CC2)n1,-0.2,·
COc1ccc(-c2cc(C(=O)Nc3ccccc3)c3ccccc3n2)cc1,1.5,·
O=C(CC(SCc1ccco1)c1ccc(F)cc1)c1ccncc1 (stereo not given),-1.4,-1.3
COc1cc(/C=N/n2c(=O)[nH]c3ccccc3c2=O)ccc1OCC(=O)O,·,-0.15
Cc1csc2ncc(C(=O)N3c4ccccc4CC3C)c(=O)n12 (stereo not given),0.43,-0.8

# In another format: results already given
Cc1ccc(C2=C/C(=C3/c4ccccc4-c4ncccc43)C(=O)O2)cc1C
  CapD inh: -0.13	AID504770: ·

CCCNC(=O)CN
  CapD inh: ·	AID504770: 1.8

CCOC(=O)C1=C(CSc2n[nH]c(N)n2)NC(=O)NC1C (stereo not given)
  CapD inh: ·	AID504770: -0.2

O/N=C/c1c(F)c(F)c(F)c(F)c1F
  CapD inh: ·	AID504770: 0.15

# Some of these compounds in order of formula weight, rising.
SMILES,CapD inh,AID504770
CCNC(=S)NCC1CC1,0.8,0
CCOC(=O)C1=C(CSc2n[nH]c(N)n2)NC(=O)NC1C (stereo not given),·,-0.2
CC(C)(C)C(=O)CSc1nc2cc(Cl)c(Cl)cc2[nH]1,-1.3,-0.45
Cc1csc2ncc(C(=O)N3c4ccccc4CC3C)c(=O)n12 (stereo not given),0.43,-0.8
Cc1ccc(C2=C/C(=C3/c4ccccc4-c4ncccc43)C(=O)O2)cc1C,-0.13,·
Cc1cc(C)nc(N2CCN(C(=O)CCC(=O)NC3CCCCC3)CC2)n1,-0.2,·
CCN(C(=O)c1sc2ccccc2c1Cl)C(Cc1ccccc1)c1ccc(OC)cc1 (stereo not given),-0.31,0.9

# (cont.)
SMILES,CapD inh,AID504770
COc1ccc(-c2nnc(SC(C)C)n2-c2ccccc2)cc1,·,1.7
Cc1ccc(CNC(=S)NN(C)C)cc1,-0.16,1.2
O=C(Cc1n[nH]c(=O)c2ccccc12)Nc1nc(CN2CCOCC2)cs1,·,0.55
O=[N+]([O-])c1cc(-c2nc(-c3ccccc3)c(-c3ccc(Oc4ccccc4)cc3)[nH]2)ccc1Br,-0.08,·
Cc1ccc(OCc2ccc(C(=O)Nc3nccs3)o2)cc1C,-0.52,1
CCN1CCN(C(c2cccs2)C(C)NC(=O)c2ccccc2)CC1 (stereo not given),·,1.7
CS(=O)(=O)c1ccccc1COC(=O)Nc1cc(Cl)cc(Cl)c1,-0.33,·
O=C(COC(=O)C12CC3CC(CC(C3)C1)C2)c1ccc(Br)cc1,0.09,-0.3
S=c1n(CN2CCOCC2)nc(-c2ccccc2Br)n1-c1ccccc1,0.53,0.55
Cc1ccc(S(=O)(=O)N(C)c2nc3ccccc3nc2N2CCCC(C(N)=O)C2)cc1 (stereo not given),·,0.15
O=C(NCC(c1cccnc1)N1CCOCC1)c1ccc2c(c1)OCO2 (stereo not given),·,-0.6
O=C(CSc1nnc(-c2ccc3c(c2)OCO3)n1-c1ccccc1)NC1CCCC1,·,-0.4
C=CCSc1nnc(C(C)NS(=O)(=O)c2ccc(Cl)cc2)n1CC (stereo not given),-0.71,·
CCOC(=O)c1c(C)nn(-c2ccc(NC(=O)c3cccs3)cn2)c1C,1.3,·
Cc1ccc(-c2csc(/C(C#N)=C\Nc3ccc(S(N)(=O)=O)cc3)n2)cc1,-0.59,1.1
Cc1nnc(-c2cccc(S(=O)(=O)NCCc3ccccc3)c2)o1,0.12,-1.4
N#CCOC(=O)C1c2ccccc2Oc2ccccc21,·,-0.15
O=C1c2ccccc2C(=O)C12OC(c1ccc(F)cc1)C1(C(=O)c3ccccc3C1=O)C2c1ccc(Cl)cc1 (stereo not given),-0.52,·
O=C1CC(c2ccco2)CC2=C1C1c3ccccc3C(=O)N1c1ccccc1N2 (stereo not given),0.41,0
O=c1c2cc(N3CCOCC3)ccc2nc(SCc2cc(=O)n3cc(Cl)ccc3n2)n1Cc1ccccc1,-1,·
COc1cccc(CN(C(=O)c2ccccc2)C2CCS(=O)(=O)C2)c1 (stereo not given),0.92,1.6
CC(=O)NCc1ccc(C(=O)CSc2nc3cc(Cl)ccc3s2)o1,·,1.6
O=C1c2ccccc2C(=O)C1c1ccccc1,-0.71&-0.58,0.2
Brc1cccc(-c2nnc3sc(CNC4CCCC4)cn23)c1,·,-0.05
CC1C(=O)CC(c2ccco2)NC1c1ccco1 (stereo not given),·,-0.3
COc1ccccc1-c1n[nH]c(=S)o1,9.2,1.9
CC(C)c1nnc(NC(=O)C2c3ccccc3Oc3ccccc32)s1,11,2.3
c1cc(OC2CCNCC2)cc(-n2cnnn2)c1,-0.21,-0.4
Cc1nc2cc(N=Cc3ccc(Cl)cc3)ccc2n1Cc1ccccc1,-0.51,-1.3
COc1cccc(C(=O)NC(NCC2CCCO2)(C(F)(F)F)C(F)(F)F)c1 (stereo not given),-0.19,0.6
COc1cc(/C=C/C(=O)NNC(=O)Cc2nc(-c3ccccc3)oc2C)cc(OC)c1OC,5.8,·
Cc1cc(NC(=O)CSc2nc3ccccc3c(=O)n2NC(=O)CCc2c[nH]c3ccccc23)no1,-0.46,·
O=C(CCS(=O)(=O)Cc1ccccc1)N1CCN(c2ccccc2)CC1,0.08,-0.4
COc1ccc(CCNS(=O)(=O)c2cccc3cccnc23)cc1OC,0.16,-0.15
N#CC(c1c(Cl)cccc1N1CCCCC1)N1CCCCC1 (stereo not given),0.36,·
CC1CCN(C(=O)c2oc3ccccc3c2NC(=O)c2ccccc2F)CC1,15,0.8
CC(C)c1ccc(C2c3c(-c4ccccc4)n[nH]c3C(=O)N2c2ccccc2)cc1 (stereo not given),0.42,·
CCN(CC)Cc1csc(C(N)=O)c1,-0.02,0.45
O=C(COC(=O)CCc1ccccc1)NC12CC3CC(CC(C3)C1)C2,-0.51,-0.4
O=S(=O)(Cc1ccc(Br)cc1F)c1ccccn1,-0.065,-0.45
Cc1noc(C)c1COC(=O)Cc1c[nH]c2ccccc12,·,-0.55
